Measles inh: inhibitors of measles virus growth in infected cells. infected Vero cells, GFP fluorescence, 64 h; stronger effect = lower value. z-score (no concentration beside the values). 33,000 compounds, 0.1% hits;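 active = z-score under -3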;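 also: score is relative to mean and SD of the compound wells of a plate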
The depositor's hits bear a star. An excerpt. The share of hits here may be higher or lower than overall.

The first 4 records, to show the layout:
SMILES	Measles inh
CCc1ccc(NC(=O)CSc2nc3ccccc3c(=O)n2C2CCCCC2)cc1	0.05
Cc1ccc(C(=O)Nc2ccc3oc(-c4ccccc4)nc3c2)cc1[N+](=O)[O-]	-1.6
CCOc1ccc(NC(=O)CCC(=O)Oc2ccc(C)cc2)cc1	-0.28
NC(=O)C1(N2CCCCC2)CCN(C2OC(=O)c3ccccc32)CC1 (stereo unspecified)	-0.36

The list itself, from the start:
SMILES	Measles inh
CCc1ccc(NC(=O)CSc2nc3ccccc3c(=O)n2C2CCCCC2)cc1	0.05
Cc1ccc(C(=O)Nc2ccc3oc(-c4ccccc4)nc3c2)cc1[N+](=O)[O-]	-1.6
CCOc1ccc(NC(=O)CCC(=O)Oc2ccc(C)cc2)cc1	-0.28
NC(=O)C1(N2CCCCC2)CCN(C2OC(=O)c3ccccc32)CC1 (stereo unspecified)	-0.36
COC(=O)C1=C(N)N(c2ccc(S(N)(=O)=O)cc2)C2=C(C(=O)CCC2)C1c1cccc([N+](=O)[O-])c1 (stereo unspecified)	0.76
CCCCSc1nnc2c(n1)OC(c1ccccc1)Nc1ccccc1-2 (stereo unspecified)	0.12
CN(C)CCCNC(=O)c1cc(-c2ccc(Br)s2)nc2ccccc12	-1.09
Cc1cccc(-c2cc(C(=O)NCc3ccncc3)c3ccccc3n2)c1	-0.09
Cc1cc(C)c(CSc2nnc(C)s2)c(C)c1	0.52
Cc1cc(C)c2nc(Nc3nc(C)cc(-c4ccccc4)n3)nc(C)c2c1	0.94
O=C(NC1CCCCC1)C1c2ccccc2C(=O)N1CCC1=CCCCC1 (stereo unspecified)	-0.01
Brc1nc(Br)c(Br)c(Br)c1Br	-1.18
CC1(C)Cc2c(cnn2-c2ccc(Br)cc2)-c2nc3ccccc3nc21	0.44
CCOC(=O)C1=NNC2C(=O)N(c3ccccc3OCC)C(=O)C12 (stereo unspecified)	-0.57
Cc1cccc(NC(=O)C2c3ccccc3C(=O)N(C)C2c2cccs2)n1 (stereo unspecified)	1.04
CCOC(=O)C1=C(C)NC2=C(C(=O)c3ccccc32)C1c1ccc(OC(=O)c2ccc(C)cc2)cc1 (stereo unspecified)	-1.78
CCCCC(=O)Nc1c(-c2ccccc2)nc2cc(C)ccn12	2.68
CSc1ccccc1NC(=O)c1cnn2c(C(F)(F)F)cc(-c3cccs3)nc12	-0.2
CCCOCCOC(=O)c1[nH]c2c(c1C)C(=O)CC(c1ccc(Cl)cc1)C2 (stereo unspecified)	-0.66
O=C(O)CCCCCN1C(=O)c2cccc3c(N4CCCCC4)ccc(c23)C1=O	8.8
Cc1sc2c(c1C)c(=O)n(-c1ccc(F)cc1)c(=O)n2CC(=O)NC1CCCC1	0.12
CCCNC(=O)Cn1cnc2c1c(=O)n(C)c(=O)n2C	-0.11
COc1cc(OC)cc(-n2c(=O)c3sccc3n(Cc3cc(C)ccc3C)c2=O)c1	-0.64
COCCCNC(=O)Cn1cnc2sc(C)c(S(=O)(=O)N3CCCCC3)c2c1=O	-0.77
CCCC12CN3CC(C)(CN(C1)C3c1ccc(O)cc1O)C2=O (stereo unspecified)	-0.66

Ordered by the number under Measles inh (descending): six from the list above
SMILES	Measles inh
Cc1cc(C)c2nc(Nc3nc(C)cc(-c4ccccc4)n3)nc(C)c2c1	0.94
COC(=O)C1=C(N)N(c2ccc(S(N)(=O)=O)cc2)C2=C(C(=O)CCC2)C1c1cccc([N+](=O)[O-])c1 (stereo unspecified)	0.76
CCOC(=O)C1=NNC2C(=O)N(c3ccccc3OCC)C(=O)C12 (stereo unspecified)	-0.57
CN(C)CCCNC(=O)c1cc(-c2ccc(Br)s2)nc2ccccc12	-1.09
Cc1ccc(C(=O)Nc2ccc3oc(-c4ccccc4)nc3c2)cc1[N+](=O)[O-]	-1.6
CCOC(=O)C1=C(C)NC2=C(C(=O)c3ccccc32)C1c1ccc(OC(=O)c2ccc(C)cc2)cc1 (stereo unspecified)	-1.78

(further entries)
SMILES	Measles inh
CCC(=O)Oc1ccc(C(=O)Nc2ccc(-c3nc4ccccc4[nH]3)cc2)cc1	-0.35
Cc1ccc(-c2cc(C(=O)Nc3ccc(S(N)(=O)=O)cc3)c3ccccc3n2)o1	-0.93
Cn1cnnc1SC1c2cccc3cccc(c23)C1NS(=O)(=O)c1ccc(Cl)cc1 (stereo unspecified)	-0.23
Cc1ccc(N2C(=O)CC(NCCc3cccc(Cl)c3)C2=O)cc1 (stereo unspecified)	0.8
Nc1c(C(=O)c2ccccc2)sc2nc(C3CC3)cc(-c3ccccc3)c12	1.11
COc1ccc(-c2coc3cc4oc(=O)c(Cc5ccccc5)c(C)c4cc23)cc1	0.71
CC(NC(=O)c1sc(=S)n2c1[nH]c(=O)c1ccccc12)c1ccccc1 (stereo unspecified)	0.08
COc1ccc(C2/C(=C(\O)c3ccc(Cl)cc3)C(=O)C(=O)N2c2cccnc2)c(OC)c1 (stereo unspecified)	-0.79
CCCCN(CC)S(=O)(=O)c1ccc2[nH]c(=O)cc(C(=O)NC3CCCCCCC3)c2c1	-0.31
NS(=O)(=O)c1ccc(CCNC(=O)CN2C(=O)c3ccccc3C2=O)cc1	0.7
CC1CCN(S(=O)(=O)c2ccc3[nH]cc(C(=O)N4CCCCCC4)c(=O)c3c2)CC1	-0.18
Cc1ccc2n1CCn1cc(-c3ccc(Br)cc3)cc1-2	0.61
COc1ccc(CC(CC(=O)O)C(=O)Nc2ccc(Cl)cc2)cc1 (stereo unspecified)	0.43
NC(=O)C1(N2CCCCC2)CCN(C(=O)Cn2c(=O)[nH]c3ccccc3c2=O)CC1	0.58
COc1ccc(S(=O)(=O)NCc2ccccn2)cc1Br	-0.34
CCC(C)(C(=O)NC1CCCCC1)N(C(=O)C1CCC(=O)N1)c1ccc(C)cc1 (stereo unspecified)	0.1
O=C(NC1CCCCCCC1)c1ccc(N2CC3CC(C2)c2cccc(=O)n2C3)c(NS(=O)(=O)c2ccc(Cl)cc2)c1 (stereo unspecified)	1.78
Cc1ccccc1Nc1sc(C(=O)c2ccccc2)c(N)c1C(=O)NCC1CCCO1 (stereo unspecified)	0.13
O=C(Nc1ccc(Cl)c(NC(=O)c2ccccc2)c1)c1ccc2ccccc2c1	-0.69
O=[N+]([O-])c1ccc(C=Nc2ccc(N=Cc3ccc([N+](=O)[O-])cc3)cc2)cc1	0.8
O=C(Nc1ccccc1Cl)c1c(Br)sc2c1CCCC2	-1.01
Cc1ccc(Cl)cc1NC(=O)c1ccc(N2CC3CC(C2)c2cccc(=O)n2C3)c(NC(=O)c2ccc(F)cc2)c1 (stereo unspecified)	0.57
OCCN=C1CCCc2c1[nH]c1ccc(Br)cc21	5.45
CCOc1ccc(NC(=O)CN(c2cccc([N+](=O)[O-])c2)S(=O)(=O)c2ccccc2)cc1	-1.13
Cc1ccc(N2C(=O)CC(Sc3ccccc3C(=O)O)C2=O)c(C)c1 (stereo unspecified)	-1.07

Some of the entries above, set out differently.
mol | Measles inh
COc1ccc(S(=O)(=O)NCc2ccccn2)cc1Br | -0.34
CCC(C)(C(=O)NC1CCCCC1)N(C(=O)C1CCC(=O)N1)c1ccc(C)cc1 (stereo unspecified) | 0.1

Continued.
SMILES	Measles inh
O=C(c1cc2c(=O)oc3ccccc3c2s1)N1CCC(Cc2ccccc2)CC1	-0.57
Cc1ccc([N+](=O)[O-])cc1S(=O)(=O)n1c(SCc2cccc([N+](=O)[O-])c2)nc2ccccc21	-0.37
CC(=O)NS(=O)(=O)c1ccc(N2C(=O)CC(Sc3nccc(C)n3)C2=O)cc1 (stereo unspecified)	-0.29
CCCC(O)(CCN1CCOCC1)c1ccc(Br)cc1 (stereo unspecified)	-0.96
O=C(Nc1nnc(CCc2ccccc2)s1)c1cccc(Br)c1	0.46
CCN1C(=S)NC2CC1(C)Oc1c(O)cc(C(C)(C)C)cc12 (stereo unspecified)	-0.19
CCN(CC)S(=O)(=O)c1ccc(C(=O)Nc2c3c(nn2-c2ccc([N+](=O)[O-])cc2)CS(=O)(=O)C3)cc1	0.62
O=C1CC(c2cccs2)CC2=C1C(c1cc3c(cc1Br)OCO3)Nc1ccccc1N2 (stereo unspecified)	0.87
Cc1ccc(S(=O)(=O)CCC(=O)Nc2c(C)cccc2C)cc1	-0.88
CCC1Oc2ccc(Cl)cc2N(C(C)C(=O)NC2CCCC(C)C2C)C1=O (stereo unspecified)	-0.26
O=C1C2C3C=CC(C3=C3CCCC3)C2C(=O)N1c1cccc([N+](=O)[O-])c1 (stereo unspecified)	-0.83
O=C(c1ccc(F)cc1)N1c2ccccc2CCc2ccccc21	-0.44
CCc1ccccc1NC(=O)C1CCCN(S(=O)(=O)c2cccc3nonc23)C1 (stereo unspecified)	-0.75
CN(C)CCCNCC(O)Cn1c2ccc(Cl)cc2c2cc(Cl)ccc21 (stereo unspecified)	-0.77
O=C(Nc1c(-c2ccccc2)nc2ccccn12)c1cccc(C(F)(F)F)c1	0.48
C#CCN1C(=O)C(O)(CC(=O)c2ccc(OC)c(OC)c2)c2cc(Br)ccc21 (stereo unspecified)	-0.07
O=C(O)CCC(=O)N1c2ccccc2NC2=C(C(=O)CC(c3ccccc3)C2)C1c1ccc(Cl)cc1 (stereo unspecified)	-0.28
CSc1ccccc1NC(=O)CSc1nc2ccc(C)cc2[nH]1	0.22
CCCCn1c(SCC(=O)NCc2ccco2)nc2c(sc3ccccc32)c1=O	0.06
C=CCSc1nnc2nc(C)cc(C)n12	0
COc1cccc(C(=O)Nc2ccc(Cl)cn2)c1	-0.28
C=CCOC(=O)C1=C(C)Nc2nnnn2C1c1ccc(Br)cc1 (stereo unspecified)	-0.52
Oc1ccccc1-c1nc2c3ccccc3nc(=S)n2[nH]1	1.05
CCN(CC)CCNC(=O)c1sc2ncnc(N3CCCCC3C)c2c1C (stereo unspecified)	-0.47
COc1c(C)cc(C(c2cc(C)c(OC)c([N+](=O)[O-])c2)C(Cl)(Cl)Cl)cc1[N+](=O)[O-]	-0.23

(continued)
SMILES	Measles inh
O=C(O)C1C2C=CC(C2)C1C(=O)Nc1ccccc1O (stereo unspecified)	-0.17
Cc1c(C(=O)Oc2ccc(C#N)cc2)sc2ncn(C)c(=O)c12	1
CN1C(=O)c2ccccc2C(C(=O)N2CCN(c3ccccc3)CC2)C1c1cccs1 (stereo unspecified)	2.12
O=C(Nc1cccc(NC(=O)c2cccc([N+](=O)[O-])c2)n1)c1cccc([N+](=O)[O-])c1	-0.37
CC1N=C2c3ccccc3N=C(SCC(=O)c3ccc(F)cc3)N2C1=O (stereo unspecified)	-0.25
Cn1cc(C(=O)NCc2ccco2)c2ccccc2c1=O	1.82
Cc1ccccc1N=c1oc2ccc([N+](=O)[O-])cc2cc1C(N)=O	0.02
Cc1ccccc1NS(=O)(=O)c1ccc2[nH]cc(C(=O)NCCC(C)C)c(=O)c2c1	-0.4
COc1ccc(-n2c3c(c(=O)[nH]c2=O)C(C(F)(F)F)(C(F)(F)F)N=C(C)N3)cc1	0.1
CC(=O)Cc1nsc(Nc2cccc(Cl)c2C)n1	2.28
Cc1cccc(C)c1NC(=O)C1c2ccccc2Oc2ccccc21	0.9
CCN(c1ccccc1)S(=O)(=O)c1ccc2[nH]cc(C(=O)NCc3ccccc3Cl)c(=O)c2c1	-2.48
CCOC(=O)c1[nH]c2ccccc2c1NC(=O)c1ccc(Br)cc1	2.38
CC1CCC(NC(=O)CCCCCn2c(=S)[nH]c3cc4c(cc3c2=O)OCO4)CC1 (stereo unspecified)	-0.54
CCOc1cccc(C2CC(c3cccc(Br)c3)=NC(c3cccc(OC)c3)N2)c1O (stereo unspecified)	-0.88
Cc1ccc(-c2nnc(SCC(=O)N3CCOCC3)o2)cc1	0.91
Cc1csc(NC(=O)C2CCCN(S(=O)(=O)c3ccc(Br)s3)C2)n1 (stereo unspecified)	-0.67
COc1cc(C(=O)Nc2c3c(nn2-c2ccc(Cl)cc2)CS(=O)(=O)C3)cc(OC)c1OC	0.6
Cc1cc(OCC(=O)Nc2cccnc2)ccc1[N+](=O)[O-]	1.08
COc1cc(C(=S)N2CCOCC2)ccc1OC(=O)c1ccc([N+](=O)[O-])cc1	0.4
CCOC(=O)c1ccc(NC(=O)CN2CCCCC2)cc1	0.88
Cc1cc(C)cc(NC(=O)c2cc3n(n2)C(C(F)(F)F)CC(c2ccc4c(c2)OCO4)N3)c1 (stereo unspecified)	0.32
COc1ccc(-c2cc(C(=O)OC(C)C)c3ccccc3n2)cc1	0.26
COc1ccc(CNCc2cc(OC)c(OC)cc2OC)cc1	-0.37
Cc1ccc(CN2C(=O)CSc3ccc(C(=O)NCCc4ccc(Cl)cc4)cc32)cc1	0.98

Other compounds:
SMILES	Measles inh
COc1ccc(CNC(=O)C(C)C2Sc3ccccc3N(Cc3ccccc3Cl)C2=O)cc1 (stereo unspecified)	-0.8
C=CCNC(=O)c1ccc2c(=O)n(CCOC)c(=S)[nH]c2c1	-0.57
O=C(C1CCN(S(=O)(=O)c2cccs2)CC1)N1CCN(c2ccccc2Cl)CC1	0.28
CCN(CC)S(=O)(=O)c1ccc(C(=O)NC2C3CC4CC(C3)CC2C4)cc1 (stereo unspecified)	-0.32
COc1ccc(-c2cn(-c3ccc(OC)cc3)c(SCC(=O)Nc3ccc(Cl)cc3)n2)cc1	-0.2
CCCOCCOC(=O)C1=C(C)NC2=C(C(=O)CC(C)(C)C2)C1c1ccsc1 (stereo unspecified)	1.09
O=C(CCN1C(=O)COc2ccccc21)NCCc1ccc(Cl)cc1	-0.22
Cc1ccc(NC(=O)CSc2nc3c(cnn3-c3ccc(C)cc3)c(=O)[nH]2)cc1	0.51
COc1ccc(C23CC4CC(CC(C4)C2)C3)cc1N=Cc1ccc([N+](=O)[O-])cc1	-0.56
CC1(C)CC(=O)C2=C(C1)Nc1ccccc1NC2c1cccc(C(F)(F)F)c1 (stereo unspecified)	-0.62
COc1ccc(-c2nc3ccccc3o2)cc1NC(=O)c1cc(Br)ccc1OC	0.11
COc1cc(-c2cc(C(F)(F)F)n3ncc(C(=O)Nc4ccc(Cl)cc4)c3n2)cc(OC)c1OC	1.16
CCCCNc1nc(SCc2cc(F)cc3c2OCOC3)nc2ccccc12	-0.25
CCOC(=O)C1=CN(C)C=C(C(=O)OCC)C1c1cccc(F)c1	0.54
CCc1ccc(-c2ccc(C(=O)Nc3cccc([N+](=O)[O-])c3)cc2)nc1	-0.71
CCC(=O)Nc1sc(C)c(C)c1C#N	0.46
CCc1ccccc1N(C)C(=O)CCc1nc(-c2ccccc2F)no1	-1.16
CCOc1ccc(-c2nnc(Nc3ccc(OC)c(C(=O)NC)c3)c3ccccc23)cc1	0.5
